Assay outcomes as filed in PubChem.
Ecoli growth = E. coli growth inhibition; OD600 absorbance (concentration not given with the values); Escherichia coli growth, OD600, 23 h; stronger effect = lower value; 330,000 tested, 0.21% active;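 active = OD600 absorbance below the run mean of sample wells minus 3.6 SD, in any replicate, cut at about 0.56 in these data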;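 also: stock transfer was 300 nL into about 60 µL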
FGF22 binding = FGF22 (human) thermal shift binding. Q9HCT0. recombinant FGF22 thermal shift, SYPRO orange fluorescence; percent of sucrose octasulfate shift, DMSO zero. calls only at 9.99 µM. 340,000 tested, 1.5% active. AID 651658;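 active = melting point raised past a set limit in the mean and every replicate; three in four hits are not shown here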
Target sequence (Q9HCT0 whole entry, looked up): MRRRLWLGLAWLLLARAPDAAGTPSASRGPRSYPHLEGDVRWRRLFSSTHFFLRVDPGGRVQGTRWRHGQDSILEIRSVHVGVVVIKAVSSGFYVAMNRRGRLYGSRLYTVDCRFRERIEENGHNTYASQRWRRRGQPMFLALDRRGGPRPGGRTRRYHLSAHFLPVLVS
LANA-H2B inh = blocks KSHV LANA binding to histone H2A/H2B; Q9QR71; cell-free LANA-H2A/H2B peptide, fluorescence polarization; 320,000 tested, 0.6% active; inhibition, % (concentration not given with the values); AID 2629; in the data active = inhibition mostly above about 10%, no sharp cut-off; inactive = mostly below about 6.7%;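 also: stock transfer was 7.5 nL into about 10 µL; 0% = median of vehicle wells and 100% = median of positive control wells; one replicate is shown; the record names a cut of 25% in any replicate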
HNF4A DNA FP = change in binding of human HNF4 alpha to DNA | AID 1224865 | HNF4a-FITC DNA binding, fluorescence polarization, 1 h | 360,000 tested, 0.3% active | activity change, % at 10 µM | P41235; in the data active = activity change above about 30%, passing the limit was not always enough;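 also: controls were the assay level and a saturating level of protein; the project sought stronger binding though the title names inhibitors; some compounds called inactive have numbers as strong as hits; positive values seem to mean higher polarization but the record does not say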
UCH37 inh = blocks the human deubiquitinase UCH37. 330,000 tested, 0.33% active. inhibition, % (no concentration beside the values). purified proteasome/UCH37, Ub-AMC cleavage fluorescence;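 active = mean of two replicates above 20%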;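 also: 0% = compound-free wells with enzyme and 100% = wells lacking proteasome; stock transfer was 100 nL into about 20 µL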
Target sequence (Q9Y5K5 whole entry, looked up): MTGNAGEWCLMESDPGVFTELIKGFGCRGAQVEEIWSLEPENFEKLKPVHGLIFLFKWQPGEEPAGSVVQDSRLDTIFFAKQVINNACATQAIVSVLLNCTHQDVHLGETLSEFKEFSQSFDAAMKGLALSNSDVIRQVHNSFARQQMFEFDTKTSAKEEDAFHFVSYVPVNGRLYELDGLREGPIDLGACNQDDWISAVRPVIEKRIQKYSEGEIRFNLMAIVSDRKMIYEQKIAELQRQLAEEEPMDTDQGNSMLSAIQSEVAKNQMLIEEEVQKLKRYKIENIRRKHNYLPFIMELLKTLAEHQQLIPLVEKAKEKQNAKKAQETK
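Schedule: 30 min plus 25 min, room temperature / Material: human UCH37 within purified proteasomes / Technique: AMC fluorescence intensity at 355/460 nm / Buffer or medium: pH 7.4 Tris-HCl (50 mM) with ovalbumin, ATP-MgCl2, DTT / Controls: wells without proteasome as full block, compound-free enzyme plus substrate as uninhibited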
ALR H2O2 inh = human ALR oxidase inhibition via reduced H2O2. purified ALR, DTT oxidation, H2O2 HRP-luminol luminescence. inhibition, % (concentration not given with the values). 290,000 tested, 3.8% active. AID 485317;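 active = mean and each replicate at 75% or more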;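 also: stock transfer was 7.5 nL into about 7.5 µL; 0% = neutral wells and 100% = wells with inactivated enzyme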
Target sequence (P55789 whole entry, looked up): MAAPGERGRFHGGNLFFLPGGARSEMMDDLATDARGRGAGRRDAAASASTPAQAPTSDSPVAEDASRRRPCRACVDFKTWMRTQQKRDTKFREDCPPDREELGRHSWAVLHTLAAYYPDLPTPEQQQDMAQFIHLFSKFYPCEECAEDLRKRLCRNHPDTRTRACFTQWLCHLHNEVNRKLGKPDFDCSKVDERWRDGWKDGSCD
B2AR ag = activates human beta-2 adrenergic receptor causing internalization. response, % (test concentration not listed). Am2.2-beta2AR cells, FAP receptor internalization, flow cytometry; reference of the scale not given here. 340,000 tested, 0.43% active. P07550;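 active = response above a set limit, near 3 SD of response in nonfluorescent compounds, cut at about 42% in these data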;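 also: stock transfer was 100 nL into about 11 µL; a reference agonist was the positive control; negative values mostly stem from fluorescent compounds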
Active calls of the source: *; i = inactive; nt = not tested or not shown.

SMILES	Ecoli growth	FGF22 binding	LANA-H2B inh	HNF4A DNA FP	UCH37 inh	ALR H2O2 inh	B2AR ag
C/C(=N/NC(=O)c1ccc2c(c1)OCO2)c1ccc(NC(=O)C(F)(F)F)cc1	nt	nt	-366	1.5	nt	2	-7
COc1ccc(-n2c(CNc3ccc(C)cc3)nnc2SCc2ccccc2)cc1	0.68	nt	1.2	2.1	-0.6	-12	-2
Cc1ccc(-n2c(SCC(=O)NCCC3=CCCCC3)nc3n[nH]c(C)c3c2=N)cc1Cl	nt	i	1.6	3.7	nt	-2	-6
CCOc1cc(/C=N/NC(=O)Cn2nc([N+](=O)[O-])cc2C)cc(Br)c1OCc1ccccc1C	nt	nt	0.9	-5.2	nt	4	4
Cc1cc2cc(CN(Cc3nnnn3C3CCCCC3)CC3CCCO3)c(=O)[nH]c2cc1C (stereo unspecified)	0.71	i	-0.6	2.5	-6.7	-5	-3
COc1cccc(-c2c3c([nH]c(=O)c2C#N)CCc2cc(OC)ccc2-3)c1	0.71	nt	0.3	nt	-83	-22	nt
COc1ccc(/C=N/NS(=O)(=O)c2ccc(C)cc2)cc1	nt	i	-6.1	2.0	nt	13	3
C/C(CC(=O)Nc1cc(Cl)ccc1Cl)=N\NC(=O)c1ccccc1Br	nt	i	-7.2	-3.1	nt	36	11
CC(O)[C@H]1CNC(=O)C(=O)N1CCC12CC3CC(CC(C3)C1)C2 (stereo partly specified)	nt	i	2.2	-1.3	-1.9	-16	-4
Cc1nnc(N2CCCC(C(=O)Nc3cc(F)ccc3F)C2)c2nn(-c3ccccc3)c(C)c12 (stereo unspecified)	0.71	nt	3.0	9.3	-31	0	16
CCOC(=O)c1cccc(NC(=S)N2CCN(c3ncc4c(=O)c(C(=O)O)cn(CC)c4n3)CC2)c1	0.68	i	-1.2	-3.4	0.4	-2	2
O=C(CCCCCn1c(=S)[nH]c2ccc(N3CCOCC3)cc2c1=O)NCc1ccccc1Cl	0.72	i	-1.1	-0.5	-64	-45	-11
CCCCNc1ncnc2c1cnn2-c1ccc(Cl)cc1	0.69	i	-4.2	0.9	2.9	-1	-1
O=C(Nc1ccccc1)OCCN1CCN(Cc2ccccc2)CCC1=O	0.69	i	-3.5	0.0	5.0	-11	-6
COc1ccccc1NS(=O)(=O)c1cccc(C(=O)N/N=C/c2ccc(NC(C)=O)cc2)c1	nt	i	-7.2	-5.9	nt	-8	0
CCc1c(O)nc(N2CCN(Cc3ccccc3)CC2)[nH]c1=O	0.67	nt	-2.2	-1.9	3.4	nt	10
COc1cc(C2Nc3ccc4ccccc4c3C3=C2C(=O)CC(C)(C)C3)ccc1OCC(=O)O (stereo unspecified)	0.69	i	3.4	3.0	i	-7	-7
O=C(CSc1nccc(-c2cccs2)n1)Nc1cccc(Cl)c1	0.66	i	-3.5	3.8	1.8	-21	5
Nc1c(C(=O)NCc2ccc3c(c2)OCO3)nnn1CC(=O)Nc1ccc(Br)cc1	0.73	i	0.5	-1.1	2.0	3	1
Cc1c(Cl)cccc1-n1nnnc1-c1cccs1	0.7	nt	-0.3	-1.1	2.9	nt	4
N#Cc1ccc(S(=O)(=O)NCCc2ccncc2)cc1	0.69	i	nt	-2.5	2.6	nt	7
CN(CC(=O)Nc1cccc(F)c1)C(=O)c1ccc(N2CCCCC2)c([N+](=O)[O-])c1	0.65	i	-0.8	1.8	2.2	2	-2
COc1cc(OC)cc(C(=O)Nc2cc(-c3cn4cccnc4n3)ccc2C)c1	0.71	i	nt	1.4	-393	nt	-2
CCCn1ncc(/C=N/O)c1C	nt	i	-3.3	-0.2	nt	-15	2
O=C(CN1CCOCC1)Nc1ccc(OC(F)(F)F)cc1	0.68	i	5.8	0.8	3.8	-11	-8

Following part.
SMILES	Ecoli growth	FGF22 binding	LANA-H2B inh	HNF4A DNA FP	UCH37 inh	ALR H2O2 inh	B2AR ag
Cc1cc(C(=O)NCc2ccccc2Cl)c2ccccc2n1	0.7	i	11	2.1	1.2	-2	-1
COc1ccc(-c2cc(C(=O)N3CCN(C(=O)c4ccccc4F)CC3)[nH]n2)cc1	0.7	i	4.1	-1.1	2.2	-4	-5
COCc1[nH]nc2c1C(c1cc(OC)c(O)c(OC)c1)C(C#N)=C(N)O2 (stereo unspecified)	0.69	nt	-7.3	1.3	7.5	11	0
CC1(CCC(=O)O)C(=O)CCC2C1CCC1(C)C2CCC1(C)O (stereo unspecified)	0.67	i	nt	-3.5	1.8	nt	-15
Cc1ccc(C(=O)c2ccc(C)cc2)cc1	0.67	i	nt	-2.1	4.1	nt	2
CN(CC(=O)Nc1ccc(F)cc1)C(=O)c1cc([N+](=O)[O-])ccc1N1CCOCC1	0.64	i	2.0	-4.1	10	-2	-12
CN1CCN(C(=O)c2ccc3c(c2)OCCO3)CC1	0.75	nt	2.8	-1.5	4.5	-1	1
Cc1nc([N+](=O)[O-])c(Br)n1Cc1ccc(Cl)c(Cl)c1	0.66	i	nt	-0.2	3.5	nt	58*
CC(C#N)N1CCN(S(=O)(=O)c2ccc3c(c2)CCC3)CC1 (stereo unspecified)	0.69	i	0.4	-2.5	4.5	nt	6
COC(=O)c1ccc(NC(=O)COc2ccc([N+](=O)[O-])cc2)cc1	0.76	i	20*	3.5	5.5	nt	-1
CCOC(=O)CNC(=O)CSc1nc2cccnc2n1Cc1ccccc1	0.74	nt	-2.1	2.4	-1.7	-4	-12
Cc1cnc(CN(C)Cc2nc(Cc3cccc(C(F)(F)F)c3)no2)[nH]1	0.69	nt	-2.4	-2.4	4.0	-2	-3
O=C(CSc1ncccc1-c1nc2ccccc2[nH]1)N1CCN(c2ccccc2F)CC1	0.68	nt	0.9	13	-13	-4	-1
COc1ccc(NC(=O)C2(c3cccs3)CCOCC2)cc1	0.69	i	-8.6	-2.3	2.1	-2	-8
CC(C)(CO)Nc1ccc([N+](=O)[O-])cc1[N+](=O)[O-]	0.77	nt	-8.7	0.0	0.9	-27	5
Cc1cc(-c2cc(C(=O)NCc3ccccc3)on2)nc(NCC2CC2)n1	0.64	i	3.2	2.9	1.7	2	-1
C=CCN1C(=O)/C(=C2/Sc3ccccc3N2CC)SC1=S	0.71	i	-2.1	-0.5	3.0	5	12
CCn1c(-c2ccc(N(C)C)cc2)nc2ccccc21	0.69	nt	7.3	3.1	-233	99*	-9
Cc1cc(NC(=O)CCCN2C(=O)c3cccc4cccc(c34)C2=O)no1	0.68	i	-4.9	5.0	-186	nt	0
COc1cc(NC(=O)c2ccccc2F)c(OC)cc1NC(=O)CN1CCCCC1	0.69	i	-4.5	2.5	3.3	-38	-6
Cc1cccnc1NC(=O)c1cc2c(=O)oc3ccccc3c2s1	0.69	nt	2.8	-1.1	2.1	-6	-17
C=CCOc1cc(OC)c(OC)c(OC)c1	0.71	nt	-11	-2.7	-1.4	-6	-3
CS(=O)(=O)N(CC(=O)NCc1ccccc1Cl)Cc1ccccc1	0.72	nt	6.6	4.0	0.4	4	3
O=C(NCCc1ccc(F)cc1)c1coc(=O)c(Br)c1	0.62	i	2.2	-0.8	2.1	-5	11
CCCOCC(O)CC(Cc1ccccc1)C(=O)NN (stereo unspecified)	0.69	i	5.1	-3.0	1.7	-7	-3

(next part)
SMILES	Ecoli growth	FGF22 binding	LANA-H2B inh	HNF4A DNA FP	UCH37 inh	ALR H2O2 inh	B2AR ag
O=C(CN1CCc2ccccc2C1)Nc1ccccc1F	0.6	i	-1.5	0.4	1.7	-4	-5
COc1ccc(S(=O)(=O)N2CCCCCC2)cc1C(=O)N1CCN(c2ccc(F)cc2)CC1	0.69	i	nt	3.2	4.1	nt	10
O=C(COC(=O)c1cccc(Cl)c1)NC(=O)NCc1ccccc1	0.68	i	-0.9	-2.4	1.9	-1	1
Cc1nc2ccccc2n1CC(O)COCC1CC=CCC1 (stereo unspecified)	0.69	nt	1.6	-3.7	-1.9	-21	0
On1nnc2ccc3ccccc3c21	0.72	i	-0.8	0.5	-2.7	-26	-5
COc1ccc(/C=C2\SC(=S)N(N3CCOCC3)C2=O)c(OC)c1	0.65	i	0.8	11	5.4	-2	13
N#C/C(=C\c1c(N2CCC(C(N)=O)CC2)nc2ccccn2c1=O)S(=O)(=O)c1ccccc1	0.71	nt	-7.7	-6.6	1.5	27	4
CCOc1ccc(Nc2ccc(N)c(S(=O)(=O)O)c2)cc1	0.67	i	nt	-24	6.5	nt	-1
CCCN(/C=N/c1sc2c(c1C#N)CCCCC2)CCC	nt	nt	-0.2	-1.1	nt	nt	-1
O=c1[nH]c(=O)c2cc3ccccc3nc2[nH]1	nt	i	nt	1.3	nt	nt	9
CCC(C)[C@H](NC(=O)C1CC(=O)N(c2ccc3c(c2)OCCO3)C1)C(=O)NC1CCCC1 (stereo partly specified)	0.65	i	-1.7	6.6	2.0	-1	-3
O=C(CSc1nc2ccccc2c(=O)n1-c1ccc(F)cc1)Nc1ccc2c(c1)CCC2	0.73	nt	11	-5.6	4.7	0	-3
O=C(c1ccc([N+](=O)[O-])cc1[N+](=O)[O-])N1CCCC1	0.69	i	-2.2	-13	0.8	-24	5
O=C(c1ccccc1)c1ccc(Oc2ccc(C(=O)O)c(C(=O)O)c2)cc1	0.68	i	-3.4	-6.0	2.2	8	-11

Gathered by group: the entries above containing an aryl methoxy group
SMILES	Ecoli growth	FGF22 binding	LANA-H2B inh	HNF4A DNA FP	UCH37 inh	ALR H2O2 inh	B2AR ag
COc1ccc(-n2c(CNc3ccc(C)cc3)nnc2SCc2ccccc2)cc1	0.68	nt	1.2	2.1	-0.6	-12	-2
COc1cccc(-c2c3c([nH]c(=O)c2C#N)CCc2cc(OC)ccc2-3)c1	0.71	nt	0.3	nt	-83	-22	nt
COc1ccc(/C=N/NS(=O)(=O)c2ccc(C)cc2)cc1	nt	i	-6.1	2.0	nt	13	3
COc1ccccc1NS(=O)(=O)c1cccc(C(=O)N/N=C/c2ccc(NC(C)=O)cc2)c1	nt	i	-7.2	-5.9	nt	-8	0
COc1cc(C2Nc3ccc4ccccc4c3C3=C2C(=O)CC(C)(C)C3)ccc1OCC(=O)O (stereo unspecified)	0.69	i	3.4	3.0	i	-7	-7
COc1cc(OC)cc(C(=O)Nc2cc(-c3cn4cccnc4n3)ccc2C)c1	0.71	i	nt	1.4	-393	nt	-2
COc1ccc(-c2cc(C(=O)N3CCN(C(=O)c4ccccc4F)CC3)[nH]n2)cc1	0.7	i	4.1	-1.1	2.2	-4	-5
COCc1[nH]nc2c1C(c1cc(OC)c(O)c(OC)c1)C(C#N)=C(N)O2 (stereo unspecified)	0.69	nt	-7.3	1.3	7.5	11	0
COc1ccc(NC(=O)C2(c3cccs3)CCOCC2)cc1	0.69	i	-8.6	-2.3	2.1	-2	-8
COc1cc(NC(=O)c2ccccc2F)c(OC)cc1NC(=O)CN1CCCCC1	0.69	i	-4.5	2.5	3.3	-38	-6
C=CCOc1cc(OC)c(OC)c(OC)c1	0.71	nt	-11	-2.7	-1.4	-6	-3
COc1ccc(S(=O)(=O)N2CCCCCC2)cc1C(=O)N1CCN(c2ccc(F)cc2)CC1	0.69	i	nt	3.2	4.1	nt	10
COc1ccc(/C=C2\SC(=S)N(N3CCOCC3)C2=O)c(OC)c1	0.65	i	0.8	11	5.4	-2	13

A portion of the library; count on the stated rates, not on these rows.
